High-throughput results as filed in PubChem BioAssay.
Sa growth inh: blocks Staphylococcus aureus growth; S. aureus RN4220 growth, OD600, 20 h, 42 °C; hits give low values; relative growth, % (no concentration beside the values); 170,000 compounds, 0.53% hits; AID 720641;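 active = growth at 42 °C up to 50% and 20 or more points under that at 30 °C, or under 10% at both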;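 also: 300 nL library stock went into each well; scaled to the means of positive and negative controls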
GIV-Gai inh: inhibitors of GIV GBA-motif binding to rat Galpha-i3; percent of control (FP), % (no concentration beside the values); 210,000 compounds, 0.42% hits; P08753; Galpha-i3/FITC-GIV peptide fluorescence polarization, 90 min; hits give low values; scaled: aluminum fluoride 0%, vehicle 100%; AID 1224905;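 active = replicate mean at 85% of control or lower, very high polarization wells dropped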;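 also: wells of about 15 µL received 100 nL stock; the first replicate is given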
Target sequence (P08753 whole entry, looked up): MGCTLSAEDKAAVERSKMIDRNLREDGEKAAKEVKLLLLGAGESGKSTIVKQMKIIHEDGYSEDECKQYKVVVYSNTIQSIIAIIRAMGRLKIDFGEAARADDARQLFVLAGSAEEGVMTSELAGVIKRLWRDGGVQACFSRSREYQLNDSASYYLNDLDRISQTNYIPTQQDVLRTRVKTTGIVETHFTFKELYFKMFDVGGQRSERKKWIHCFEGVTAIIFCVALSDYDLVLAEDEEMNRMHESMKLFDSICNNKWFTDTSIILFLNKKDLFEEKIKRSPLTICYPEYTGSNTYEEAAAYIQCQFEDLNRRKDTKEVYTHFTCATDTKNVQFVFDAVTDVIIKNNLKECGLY
HCMV NEC inh: cytomegalovirus nuclear egress complex inhibition; inhibition, % (test concentration not listed); HTRF UL50-UL53 interaction, normalized percent inhibition; 190,000 compounds, 0.15% hits; AID 1918969;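 active = both replicates at 50% or more, plus weaker picks with an unusually low signal ratio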;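 also: stock transfer was 100 nL into about 20 µL; 0% = negative control wells and 100% = wells with untagged competitor protein; inactives centre near -12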
Sa growth inh second temp: second read-out of Sa growth inh, no call of its own (marks repeat the call); relative growth, %; measured here: growth at 30 °C;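 optical density after 20 h as mean of two plates; 100% = untreated growth and lower means inhibition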
An asterisk follows results filed as active; . = no result given.

cpd	SMILES	Sa growth inh	Sa growth inh second temp	GIV-Gai inh	HCMV NEC inh
1	CCC(C(=O)Nc1cccc(NC(C)=O)c1)c1ccccc1 (stereo unspecified)	95	102	.	7
2	CN1CCN(/N=C/c2sc(Nc3ccccc3)nc2Cl)CC1	94	102	.	-52
3	CCOc1ccccc1CNS(=O)(=O)c1ccc(-c2coc(C)n2)cc1	94	70	104	.
4	Cc1cc(C)cc(OCC(=O)OCc2nnc(-c3ccccc3)o2)c1	90	90	.	-27
5	CCOC(=O)Cn1c(=O)n(-c2ccc(Cl)cc2)c2nc(-c3ccc(Cl)cc3)nc(C(N)=O)c21	99	95	101	.
6	O=C1c2ccccc2C(=O)c2c1ncn2-c1ccccc1	10	16	98	.
7	O=C(OCn1nnc2ccccc2c1=O)C1CCN(S(=O)(=O)c2cccs2)CC1	88	98	.	-27
8	CCCS(=O)(=O)N1CC(=O)N(c2ccccc2C)C(C)(C(=O)NC2CCCCC2)C1 (stereo unspecified)	116	83	104	.
9	Cc1ccc(N=C2NC(=O)CC(C(=O)O)S2)cc1 (stereo unspecified)	91	86	93	-16
10	CCS(=O)(=O)c1ncc(Cl)c(C(=O)NCCc2ccc(OC)c(OC)c2)n1	74	46	109	-7
11	Cc1cccc(NC(=O)Cn2c(=O)oc3cc(S(=O)(=O)NCc4ccccc4)ccc32)c1	108	86	105	-19
12	CCOc1ccc(C2C(=O)N(C3CCCCCC3)CC(=O)N2CCc2ccc(OC)c(OC)c2)cc1OC (stereo unspecified)	91	83	102	.

cpd	SMILES	Sa growth inh	Sa growth inh second temp	GIV-Gai inh	HCMV NEC inh
13	Nc1c(N(C(=O)CC2OC(=O)c3ccccc32)C2CCCC2)c(=O)[nH]c(=O)n1Cc1ccccc1 (stereo unspecified)	84	88	.	-31
14	CCCCC1=NN(C(=O)c2ccc(Br)cc2)C(O)(C(F)(F)F)C1 (stereo unspecified)	.	.	104	0
15	Cn1/c(=N/NC(=O)C2=NN(c3ccccc3)C(=O)CC2)sc2ccccc21	93	94	.	2
16	O=C1/C(=C\c2cccs2)SC(=S)N1CC1CCCO1 (stereo unspecified)	103	107	99	-17
17	Cc1c(OCC#N)ccc2c3c(c(=O)oc12)CCC3	85	83	105	-38
18	COc1cccc(-c2noc(N3CCCCC3)n2)c1	.	.	99	0
19	CC(=O)Nc1nnc(SCC(=O)c2ccccc2)s1	99	90	102	-11
20	CCc1cccc(C)c1NS(=O)(=O)c1ccc(-n2cccn2)cc1	64	65	107	.
21	CC(O)Cc1nnc(SCc2nnc(-c3ccccc3)o2)n1-c1ccccc1 (stereo unspecified)	90	102	102	2
22	Cc1ccc(CSC2=Nc3ccccc3C3=NC(CC(=O)NCc4cccs4)C(=O)N23)cc1 (stereo unspecified)	47	50	105	.
23	Cc1ncc(CO)c2cc(-c3nnc(Nc4cc(C(F)(F)F)ccc4Cl)s3)c(=O)oc12	100	92	102	.
24	CCCCNC(=O)Cn1cnc2sc(C)c(S(=O)(=O)N3CCN(c4ccccc4OC)CC3)c2c1=O	103	90	104	-18

cpd	SMILES	Sa growth inh	Sa growth inh second temp	GIV-Gai inh	HCMV NEC inh
25	CCOC(=O)Cc1csc(NC(=O)C2CCCCC2C(=O)O)n1 (stereo unspecified)	94	89	99	-7
26	COc1ccc(OCC(=O)NCc2ccc3c(c2)CCN3C(=O)c2ccccc2)cc1	97	88	103	.
27	O=C(NCc1cccs1)c1ccc(Cn2c(SCc3ccc(F)cc3)nc3cccnc32)cc1	139	92	106	.
28	Cc1ccc(C)c(NC(=O)c2ccc3c(c2)CCN3S(C)(=O)=O)c1	87	104	107	8
29	CN1C(=O)CSc2ccc(NC(=O)NCc3ccccc3)cc21	90	84	98	-6
30	Cc1cc(C)c(S(=O)(=O)Nc2noc3ccccc23)c(C)c1	.	.	93	-15
31	O=C(Nc1cccc(C(F)(F)F)c1)N1CCC(CN2CCc3ccccc3C2)CC1	103	83	107	.
32	O=S(=O)(/C=C/c1ccccc1)N1CCN(c2ccc(S(=O)(=O)N3CCCCC3)cn2)CC1	82	97	.	4
33	Cc1sc(-c2cccs2)nc1O	.	.	98	-31
34	OCCSc1ccc(Oc2ccc(SCCO)cc2)cc1	113	88	103	-11
35	Cc1nc(SCC(=O)Nc2cccc(C(F)(F)F)c2)[nH]c(=O)c1C	108	79	101	-10
36	COc1cc(CN(C(=O)c2ccccc2F)C2CCS(=O)(=O)C2)cc(OC)c1OC (stereo unspecified)	96	89	104	-14

Of the compounds above, these have a COOH group.
cpd	SMILES	Sa growth inh	Sa growth inh second temp	GIV-Gai inh	HCMV NEC inh
9	Cc1ccc(N=C2NC(=O)CC(C(=O)O)S2)cc1 (stereo unspecified)	91	86	93	-16
25	CCOC(=O)Cc1csc(NC(=O)C2CCCCC2C(=O)O)n1 (stereo unspecified)	94	89	99	-7

Going on with the list:
cpd	SMILES	Sa growth inh	Sa growth inh second temp	GIV-Gai inh	HCMV NEC inh
37	CCOc1ncccc1C(=O)OCc1ccc(Cl)cc1	93	93	.	-16
38	COC(=O)c1ccccc1NC(=O)c1c(-c2ccccc2)c(-c2ccccc2)n[nH]c1=O	.	.	100	-29
39	Cc1onc(-c2ccccc2)c1NC(=O)Nc1ccc(OC(F)F)cc1	101	67	103	3
40	CC(CC(=O)N1CCN(c2ccc(F)cc2)CC1)CC1=NS(=O)(=O)c2ccccc2N1 (stereo unspecified)	119	84	104	0
41	CCOC(=O)c1nc(N2CCN(c3ccccc3)CC2)c2ccccc2n1	.	.	100	-57
42	CN(C(=O)c1ncn[nH]1)c1ccccc1	107	93	102	4
43	Cc1nc(-c2cccs2)sc1C(=O)Nc1ccccc1	81	70	.	-62
44	COc1ccc(-c2nc3ccccc3o2)cc1NC(=O)c1ccc(N2CCC(C)CC2)c([N+](=O)[O-])c1	104	91	97	-4
45	COc1cc(NS(=O)(=O)c2ccc3c(c2)CCCN3C(C)=O)cc(OC)c1OC	88	87	100	.
46	Cc1ccc2nc3c(c(N)c2c1)CCCC3	103	80	114	-16
47	CCOc1ccc(NC(=O)C(Cc2ccccc2)NS(=O)(=O)c2ccc3c(c2)oc(=O)n3C)cc1 (stereo unspecified)	83	92	100	-2
48	COC(=O)C1CCN(C(c2ccccc2Cl)c2sc3nc(-c4ccco4)nn3c2O)CC1 (stereo unspecified)	119	87	98	.

cpd	SMILES	Sa growth inh	Sa growth inh second temp	GIV-Gai inh	HCMV NEC inh
49	Cc1csc(NC(=O)Cn2cnc3c2c(=O)n(C)c(=O)n3C)n1	78	91	95	3
50	Cc1ccc(S(=O)(=O)NCc2ccccc2)cc1C(=O)N1CCCCCC1	96	102	.	2
51	Cc1n[nH]c(C)c1Cc1c(Cl)cccc1Cl	66	9	104	4
52	Cc1nc(Oc2ccc(Cl)cc2)c(C(=O)O)c(C)c1Cl	123	107	.	2
53	Cc1nc2nc(C)c(Cc3ccc(C(C)C)cc3)c(=O)n2[nH]1	.	.	95	-22
54	N#Cc1c(N)c(C(=O)c2ccccc2)n2ccccc12	99	83	117	-60
55	CC1CCc2[nH]c3ccc(C(=O)NCCCN4CCCC4=O)cc3c2C1 (stereo unspecified)	103	90	.	5
56	CNc1nc2ccccc2n2c(C)nnc12	104	93	103	.
57	COc1cccc(NC(=O)C2CCN(c3nn4c(=O)cc(C)nc4s3)CC2)c1	97	85	106	-9
58	CCOC(=O)C1CCN(C(=O)C(Cc2ccccc2)NS(=O)(=O)c2ccc3c(c2)CCC(=O)N3)CC1 (stereo unspecified)	112	92	107	-10
59	CC(=O)Nc1ccc2c(c1)CCc1ccccc1-2	101	88	99	-13
60	CCc1nnc(NC(=O)c2c(C)nn(-c3ccccc3)c2Cl)s1	102	92	.	4

In the list so far, 7 contain an NH in an aromatic ring:
cpd	SMILES	Sa growth inh	Sa growth inh second temp	GIV-Gai inh	HCMV NEC inh
13	Nc1c(N(C(=O)CC2OC(=O)c3ccccc32)C2CCCC2)c(=O)[nH]c(=O)n1Cc1ccccc1 (stereo unspecified)	84	88	.	-31
35	Cc1nc(SCC(=O)Nc2cccc(C(F)(F)F)c2)[nH]c(=O)c1C	108	79	101	-10
38	COC(=O)c1ccccc1NC(=O)c1c(-c2ccccc2)c(-c2ccccc2)n[nH]c1=O	.	.	100	-29
42	CN(C(=O)c1ncn[nH]1)c1ccccc1	107	93	102	4
51	Cc1n[nH]c(C)c1Cc1c(Cl)cccc1Cl	66	9	104	4
53	Cc1nc2nc(C)c(Cc3ccc(C(C)C)cc3)c(=O)n2[nH]1	.	.	95	-22
55	CC1CCc2[nH]c3ccc(C(=O)NCCCN4CCCC4=O)cc3c2C1 (stereo unspecified)	103	90	.	5

Other compounds
cpd	SMILES	Sa growth inh	Sa growth inh second temp	GIV-Gai inh	HCMV NEC inh
61	COc1ccc(-c2ccc(=O)n(CC(=O)Nc3ccc(C)cc3)n2)cc1	88	75	101	-24
62	CCCc1nc(NCCc2cccs2)c2nnn(Cc3ccccc3Cl)c2n1	103	93	99	-16
63	Cc1ccc2nc(CN3CCN(S(=O)(=O)c4ccc(C)c(C)c4)CC3)oc2c1	105	89	104	.
64	CNC(=S)Nc1ccc(OC(F)(F)F)cc1	84	93	103	5
65	CCn1c(C2COc3ccccc3O2)n[nH]c1=S (stereo unspecified)	76	76	103	-23
66	Cc1ccc(N(Cc2nnc(SCC(=O)Nc3cc(C)ccc3O)n2C)S(C)(=O)=O)cc1	.	.	113	-1
67	CCOC(=O)c1c(C)[nH]c(C)c1S(=O)(=O)N1CCCC(C(=O)NCc2cccc(C)c2)C1 (stereo unspecified)	79	82	103	.
68	CSc1sc(=S)sc1SC	93	89	100	-18
69	CCOC(=O)Cc1nnc(-c2ccccc2)o1	104	87	111	.
70	NC(=O)CSc1oc(-c2ccco2)nc1S(=O)(=O)c1ccc(Br)cc1	92	86	100	-48
71	c1ccc2c(c1)[nH]c1nc(SCCN3CCCCC3)nnc12	87	90	107	-40
72	CNC(=O)c1c(NC(=O)c2nc(SCc3ccc(C)cc3)ncc2Cl)sc2c1CCCC2	95	90	95	-15

cpd	SMILES	Sa growth inh	Sa growth inh second temp	GIV-Gai inh	HCMV NEC inh
73	N#CCOC(=O)c1cc2c(s1)CCCCC2	115	82	.	5
74	COc1cccc(C2C(=O)N(C3CCC(C)CC3)CC(=O)N2CCc2ccccc2)c1OC (stereo unspecified)	107	96	101	-7
75	CN(c1ccccc1C(=O)O)S(=O)(=O)c1ccc2c3c(cccc13)C(=O)N2	111	97	105	.
76	CCN(Cc1ccccc1)Cc1c(O)ccc2oc(C)c(C(=O)Nc3ccc(C)cc3C)c12	90	56	106	-4
77	O=C(CN1C(=O)CCSc2ccccc21)N1CCCC1	83	82	100	.
78	CN(C)CCCNc1c(N)c(=O)oc2ccccc12	89	85	97	-30
79	CC1CN(S(=O)(=O)c2ccc(F)cc2)C(C)CN1S(=O)(=O)c1ccc(F)cc1 (stereo unspecified)	101	86	98	.
80	CC1(C(=O)NCc2ccc3c(c2)OCO3)CCN(C(=O)NC2COc3ccccc3C2)CC1 (stereo unspecified)	.	.	102	-16
81	COCCn1cnnc1SCC(=O)NC(=O)C1CCCCC1	88	87	.	-6
